LYPLA1 counter: counter-screen for PME1 inhibitors: inhibitors of human LYPLA1 | O75608 | recombinant LYPLA1, FP-Rh probe fluorescence polarization | inhibition, % at 5.9 µM | 0.16% of 320,000 active;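 active means inhibition above the mean of all tested compounds plus 3 SD, set per campaign, cut at about 14% in these data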;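 further: inhibitors block serine hydrolase probe labeling of LYPLA1 so polarization falls; 0% = enzyme with DMSO and 100% = wells lacking LYPLA1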
Target sequence (O75608 whole entry, looked up): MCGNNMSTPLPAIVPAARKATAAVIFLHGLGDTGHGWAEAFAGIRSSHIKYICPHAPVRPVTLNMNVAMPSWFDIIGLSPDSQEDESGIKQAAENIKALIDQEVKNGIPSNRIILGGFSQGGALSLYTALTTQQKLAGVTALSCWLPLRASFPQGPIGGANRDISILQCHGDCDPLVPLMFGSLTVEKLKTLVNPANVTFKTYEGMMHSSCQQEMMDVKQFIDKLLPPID
PAFAH2 inh: PAFAH2 (human) inhibition | 0.99% of 340,000 active | recombinant PAFAH2, FP-rhodamine activity probe, fluorescence polarization | AID 492956 | inhibition, % at 3.39 µM | Q99487;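 active means inhibition above the mean over all tested compounds plus 3 SD, cut at about 30% in these data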;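 further: inhibitors block probe labeling of enzyme so polarization drops; 0% = enzyme with DMSO and 100% = wells lacking PAFAH2 protein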
LYPLA2 inh: counter-screen for PME1 inhibitors: inhibitors of human LYPLA2 | AID 2177 | recombinant LYPLA2, FP-Rh probe fluorescence polarization | inhibition, % at 5.9 µM | 0.38% of 320,000 active;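 active means inhibition above the screen-wide mean plus 3 SD, limit set per campaign, cut at about 26% in these data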;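 further: 0% = LYPLA2 with DMSO and 100% = wells lacking LYPLA2 enzyme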
Target sequence (O95372 whole entry, looked up): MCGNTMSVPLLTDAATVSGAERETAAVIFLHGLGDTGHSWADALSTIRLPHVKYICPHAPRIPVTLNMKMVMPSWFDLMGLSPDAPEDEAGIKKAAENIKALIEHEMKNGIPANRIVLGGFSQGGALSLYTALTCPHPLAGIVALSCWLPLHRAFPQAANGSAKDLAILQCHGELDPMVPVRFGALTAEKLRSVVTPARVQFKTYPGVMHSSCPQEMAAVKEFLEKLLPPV
ZTA counter: ZTA (EBV) inhibition in EBNA-1 counter-screen; P03206; ZTA-DNA binding, fluorescence polarization; inhibition, % at 11 µM; 0.15% of 320,000 active; AID 2234; in the data active means inhibition above about 33%
Target sequence (P03206 whole entry, looked up): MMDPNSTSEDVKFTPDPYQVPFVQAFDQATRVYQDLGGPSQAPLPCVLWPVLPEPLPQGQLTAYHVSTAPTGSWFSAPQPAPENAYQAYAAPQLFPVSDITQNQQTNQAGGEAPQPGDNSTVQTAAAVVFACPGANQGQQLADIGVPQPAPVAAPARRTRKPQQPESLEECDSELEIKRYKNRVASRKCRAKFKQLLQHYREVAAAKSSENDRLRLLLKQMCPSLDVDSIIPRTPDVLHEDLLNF
PAD4 inh: PAD4 (human) enzyme inhibition. inhibition, % at 6.36 µM. recombinant PAD4, RCA probe fluorescence polarization. Q9UM07. 0.41% of 330,000 active;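 active means percent inhibition above a cutoff equal to the mean of all tested compounds plus 3 SD, cut at about 15% in these data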;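 further: 0% = PAD4 with RCA probe and DMSO and 100% = probe without PAD4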
EBNA-1 inh: blocks EBNA-1 binding to DNA. EBNA-1 DNA binding, fluorescence polarization. AID 1950. 0.34% of 300,000 active. inhibition, % at 14.8 µM; in the data active means inhibition above about 28%
PAFAH1B3 inh: inhibitors of human PAFAH1B3 | inhibition, % at 3.39 µM | 0.28% of 340,000 active | Q15102 | recombinant PAFAH1B3, FP-rhodamine probe, fluorescence polarization | AID 492972;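 active means inhibition above the screen-wide average of all tested compounds plus 3 SD, cut at about 25% in these data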;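 further: 0% = enzyme with DMSO only and 100% = wells lacking PAFAH1B3 protein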
Target sequence (Q15102 whole entry, looked up): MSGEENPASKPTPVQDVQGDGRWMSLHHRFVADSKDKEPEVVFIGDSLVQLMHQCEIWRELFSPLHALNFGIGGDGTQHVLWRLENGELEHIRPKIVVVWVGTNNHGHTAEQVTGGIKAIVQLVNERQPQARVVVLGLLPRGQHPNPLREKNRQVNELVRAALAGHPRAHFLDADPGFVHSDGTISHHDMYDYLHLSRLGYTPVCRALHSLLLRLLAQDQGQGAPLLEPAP
PREPL inh: inhibits the human prolyl oligopeptidase-like enzyme; Q4J6C6; recombinant PREPL, fluorescence polarization activity-based probe; inhibition, % at 5.96 µM; 0.68% of 320,000 active; AID 2751; in the data active means inhibition above about 43%;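 further: 0% = enzyme with DMSO and 100% = wells lacking enzyme; many of its hits are not listed in these tables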
An asterisk follows results filed as active; nt = no result given.

SMILES	LYPLA1 counter	PAFAH2 inh	LYPLA2 inh	ZTA counter	PAD4 inh	EBNA-1 inh	PAFAH1B3 inh	PREPL inh
Cc1cc(Br)c(NC(=O)CCl)c(Br)c1	4	2	5	-3	-1	-4	-4	-1
Cc1ccccc1N1C(=O)CC(N(O)c2ccccc2)C1=O (stereo unspecified)	1	3	4	-6	0	12	-2	-1
CN(CCc1ccccc1)C1CCCN(S(=O)(=O)CC(F)(F)F)C1 (stereo unspecified)	-1	2	1	-8	5	-2	0	-2
CCCCCC1(C(=O)OCC)CC(CSC(=N)N)OC1=O (stereo unspecified)	1	-5	1	-3	7	2	5	2
Cc1cc(Cl)c(S(=O)(=O)Nc2ccc3c(c2)OCO3)cc1OCC(N)=O	-2	0	6	-23	1	-2	-1	0
CCOC(=O)c1c(CCl)nc2ccccc2c1C	2	4	3	-29	-4	-8	7	-5
CC(NC(=O)COC(=O)c1ccc2ccccc2n1)C1CC2CCC1C2 (stereo unspecified)	0	5	4	-19	-2	-7	9	11
Cc1ccc(C(=O)CSc2nnc(COc3cccc4cccnc34)o2)cc1	-1	11	6	6	1	-3	-1	-2
c1ccc(-n2c(SCC3CCCCO3)nnc2-c2cccs2)cc1 (stereo unspecified)	-3	3	-4	4	0	12	1	-1
N#Cc1nc(COc2ccccc2Cl)oc1NCc1ccco1	-4	-3	-5	-2	-1	-9	-4	3
Cc1ccc(C(=O)c2cc(C)sc2NC(=O)CN2CCN(C(=O)c3ccco3)CC2)cc1	2	3	5	6	-2	6	-1	16
CCCc1cc(=O)[nH]c(SCC(=O)Nc2ccc([N+](=O)[O-])cc2C#N)n1	3	-2	9	14	-3	3	8	8
CN(C)C=NC(=O)c1ccc(N2CCN(c3ncc(C(F)(F)F)cc3Cl)CC2)cc1	1	-4	7	12	-5	13	-5	10
COC(=O)c1c(NC(=O)c2cccc(S(=O)(=O)N3CCN(C)CC3)c2)sc(C)c1C	-5	30*	-3	8	-1	4	-2	6
CCOC(=O)C(CSCC(=O)c1ccc(Cl)cc1Cl)NC(=O)OC(C)(C)C (stereo unspecified)	-2	3	2	-6	-3	-5	-5	35
CCOC(=O)N1CCN(C(=O)CSc2ncccn2)CC1	1	-2	-2	2	-5	-4	6	-6
CCn1c(=NC(=O)c2cccc(N3C(=O)CCC3=O)c2)sc2c(C)ccc(OC)c21	-12	-8	-13	-6	-2	-8	6	-6
CCC1CCCCN1C(=O)Nc1cccc(NC(=O)N2CCCCC2CC)c1 (stereo unspecified)	1	-1	-3	-9	-5	10	10	16
O=C(N[C@@H](Cc1ccccc1)C(=O)O)c1c(F)c(F)c(F)c(F)c1F	1	-6	4	-24	-4	3	4	11
Cc1[nH]n(-c2ccccc2)c(=O)c1N=O	-3	3	-2	-5	-14	1	12	0
Cc1ccc(NS(=O)(=O)c2ccc3c(c2)CCN3C(=O)CCC(=O)O)cc1Cl	-5	2	-2	-38	7	-4	-1	-12
Cc1cc(C(=O)c2ccc(Cl)cc2)c(NC(=O)CCl)s1	0	-5	-1	-5	4	-12	4	0
COC(=O)c1ccccc1NC(=O)COC(C)=O	-1	2	-1	0	-5	-6	6	-3
Cc1ccc2[nH]c(=O)c(-c3noc(C(C)C)n3)cc2c1	1	-2	-2	1	3	5	13	-2
CCCNC(=O)c1c(N)n(-c2cccc(OC)c2)c2nc3ccccc3nc12	-4	2	4	-1	-7	-1	2	17
CCOC(=O)C1CCN(C(=O)CC(NS(=O)(=O)c2ccc(OC)cc2)C(C)C)CC1 (stereo unspecified)	1	-2	3	6	-8	-12	1	0
Cc1cc(C)n2nc(CNS(=O)(=O)c3c(F)c(F)c(F)c(F)c3F)nc2n1	1	4	14	-4	4	-9	3	9
CC(NC(=O)OCc1ccccc1)C(=O)OCN1C(=O)c2ccccc2C1=O (stereo unspecified)	-1	1	2	-7	-1	2	-1	-16
CC(C)N=C(NS(=O)(=O)c1ccccc1)C(Cl)(Cl)Cl	0	-2	-2	-2	2	10	6	12
CCOC(=O)N1CCN(C(=O)Cc2ccc(C)cc2)CC1	3	7	1	-17	-2	-5	12	10
Cc1cccc(NC(=O)CSc2nnc([C@@H]3CCCN3C(=O)OC(C)(C)C)o2)c1C	-2	-2	4	18	1	7	5	5
Cc1nnc(NC(=O)CSc2nnc(C)c(=O)n2N)s1	-3	1	-2	9	-2	-4	-1	6
CCSc1nnc(NC(=O)CSc2nc3c(c(=O)n2-c2ccccc2)SCC3)s1	3	2	6	6	-3	1	18	6
Cc1onc(-c2c(F)cccc2Cl)c1C(=O)OCN1C(=O)c2ccccc2C1=O	0	0	-3	17	-3	2	1	14
N#C/C(=C(/O)CCl)c1nc(-c2ccccc2)cs1	1	19	-1	19	-3	5	-4	10
CCc1nnc(NC(=O)CSc2nncc(=O)n2N)s1	-1	-4	6	-8	7	-2	7	0
Cc1nc(N2CCN(Cc3nc4ccccc4[nH]3)CC2)c2oc3ccccc3c2n1	-1	3	5	4	-2	-1	2	-16
CCOC(=O)N1CCN(C(=O)c2cc(-n3cnnc3)ccc2Cl)CC1	0	-4	-6	7	-7	-22	-4	16
CCCCc1nnc(NC(=O)CSc2nc(O)c(Cc3ccccc3)c(=O)[nH]2)s1	-3	5	-2	-12	-3	-12	11	1
NS(=O)(=O)OCc1ccc(C(F)(F)F)cc1	1	1	1	-6	-3	-3	4	-5
CCCc1cc(=O)[nH]c(SCC(=O)Nc2nonc2N)n1	-1	2	-3	-12	0	-4	3	17
CCOC(=O)c1nnn(-c2nonc2-n2cccc2)c1CCl	1	31*	7	4	-2	-4	5	-2
COc1ccccc1NC(=S)NNC(=S)Nc1ccc(OC(F)F)cc1	0	3	1	0	0	-8	14	-4
Cc1ccc(Nc2nc(N)nc(CCl)n2)cc1	-3	nt	-7	6	4	0	nt	-8
O=C(Cc1ccccc1[N+](=O)[O-])Nc1cccc(S(=O)(=O)NC2=NCCCCC2)c1	3	1	2	-6	0	1	2	-3
Cc1c(C2CC(=O)N(c3ccccc3)C2=O)[nH]n(-c2ccccc2)c1=O (stereo unspecified)	-3	3	4	-17	-2	0	6	8
COc1cc2c(cc1OC)C(C)N(S(=O)(=O)c1ccc(C)cc1)CC2 (stereo unspecified)	1	5	-2	3	12	-3	7	12
Nc1nc(CSc2n[nH]c(-c3ccccc3)n2)nc(Nc2ccccc2)n1	0	-9	3	-14	-8	-15	1	-17
Nc1nc(CCl)nc(Nc2ccccc2)n1	-2	5	4	15	-4	8	7	2
COc1cc2nc(CN3CCN(C(C)=O)CC3)[nH]c(=O)c2cc1OC	2	3	-4	6	-11	-12	4	14
CC(C)C[C@@H](N)c1nnc(SCC(=O)c2ccc(Cl)cc2)o1	-1	0	-2	-9	2	5	0	7
COc1cc(NC(=O)C2CCC(CNS(=O)(=O)c3csc(C(N)=O)c3)CC2)cc(OC)c1 (stereo unspecified)	-5	-7	4	11	0	8	8	1
COc1ccc(/C=C/C(=O)NC(=S)N2CCN(c3ccccn3)CC2)cc1	-3	nt	1	4	2	-5	nt	-5
O=C(Nc1cc(C(F)(F)F)ccc1Cl)C(Sc1n[nH]c(=O)[nH]c1=O)c1ccccc1 (stereo unspecified)	-2	2	-12	2	1	3	-1	-13
CCCCn1nnnc1SCC(=O)c1ccc(C)c(C)c1	0	2	0	-15	5	8	4	12
N#CCSc1nc2ccccc2c(=O)n1-c1ccccc1	0	-1	5	13	3	-2	-5	0
Cc1c(CC(Cl)(Cl)Cl)c2c(n1O)CC(C)(C)CC2=O	2	-5	2	6	-3	0	-1	-1
N#C/C(=C\c1ccc(Cl)cc1)c1nc(-c2ccco2)cs1	-3	-4	-8	-9	-6	-4	-8	-2
COc1ccccc1/C=C/C1(C(=O)NC2CCCC2)CC(=O)N1c1ccc(F)cc1 (stereo unspecified)	-1	21	4	-9	4	-1	-9	-17
CC(Cl)C(=O)Nc1ncc(C(F)(F)F)cc1Cl (stereo unspecified)	-2	4	3	-3	-4	0	-1	7

Copied from the list:
ZTA counter with O=C(Nc1cc(C(F)(F)F)ccc1Cl)C(Sc1n[nH]c(=O)[nH]c1=O)c1ccccc1 (stereo unspecified) is entered as 2
EBNA-1 inh with Cc1c(CC(Cl)(Cl)Cl)c2c(n1O)CC(C)(C)CC2=O is entered as 0
PREPL inh with CC(C)C[C@@H](N)c1nnc(SCC(=O)c2ccc(Cl)cc2)o1 is entered as 7
PAD4 inh with CC(Cl)C(=O)Nc1ncc(C(F)(F)F)cc1Cl (stereo unspecified) is entered as -4

Remaining list, next part
SMILES	LYPLA1 counter	PAFAH2 inh	LYPLA2 inh	ZTA counter	PAD4 inh	EBNA-1 inh	PAFAH1B3 inh	PREPL inh
COC(=O)c1cc(S(=O)(=O)N2CCCC2=O)c(Cl)cc1Cl	-1	5	9	-23	0	-3	9	0
Cc1onc(-c2ccccc2Cl)c1C(=O)OCN1C(=O)c2ccccc2C1=O	1	2	-2	-5	-9	-19	4	12
CC1(C)C2CCC1(C)C(NC(=O)/C=C/c1ccccc1)C2 (stereo unspecified)	-2	9	-3	0	-1	-6	3	5
C=C(CC)C(=O)c1ccc(OCC(=O)O)c(Cl)c1Cl	-2	-4	4	6	0	-3	6	-7
Cc1cccc(N2C(=O)CC(N(O)c3ccccc3)C2=O)c1 (stereo unspecified)	2	5	-2	11	-4	-2	2	6
CCC(C)[C@H](N)c1nnc(SCC(=O)c2ccc(Cl)cc2)o1 (stereo partly specified)	3	4	7	16	-1	4	1	0
O=C(CCl)NN1C(=O)NC(c2ccccc2)(c2ccccc2)C1=O	0	-14	0	10	-1	2	-1	5
Nc1c(-c2ccccc2)cnn1C1CCS(=O)(=O)C1 (stereo unspecified)	0	-10	6	1	0	-3	7	-11
COc1ccc(Nc2oc(-c3ccc(F)cc3)nc2C#N)cc1	6	nt	2	-20	0	0	nt	8
COc1ccc(Nc2nc(-c3ccccc3)c(C(=O)Nc3cccnc3)s2)cc1	-6	6	-4	-4	3	-17	7	29
CCOC(=O)N1CCN(C(=O)CSCc2ccc(Br)cc2)CC1	1	2	3	25	-3	2	4	10
CCCCNC(=O)c1onc(CCl)c1C(=O)OC	1	15	2	-6	-3	-10	3	4
CCOC(=O)C(C)(C)N(Cc1ccccc1C)S(=O)(=O)c1ccc(Cl)c([N+](=O)[O-])c1	0	-3	5	2	6	-1	-5	1
CC(=O)N/C(=C\c1ccccc1)C(=O)OC(C)C(=O)N(C)c1ccccc1 (stereo unspecified)	3	0	2	0	-2	-2	-1	4
CC(Cl)C(=O)Nc1cc(C(F)(F)F)ccc1N1CCOCC1 (stereo unspecified)	0	-7	-5	-12	-4	4	7	6

Grouped by structure: the compounds so far with a nitro group on carbon
SMILES	LYPLA1 counter	PAFAH2 inh	LYPLA2 inh	ZTA counter	PAD4 inh	EBNA-1 inh	PAFAH1B3 inh	PREPL inh
CCCc1cc(=O)[nH]c(SCC(=O)Nc2ccc([N+](=O)[O-])cc2C#N)n1	3	-2	9	14	-3	3	8	8
O=C(Cc1ccccc1[N+](=O)[O-])Nc1cccc(S(=O)(=O)NC2=NCCCCC2)c1	3	1	2	-6	0	1	2	-3
CCOC(=O)C(C)(C)N(Cc1ccccc1C)S(=O)(=O)c1ccc(Cl)c([N+](=O)[O-])c1	0	-3	5	2	6	-1	-5	1

Structural class, the entries above containing bromine.
SMILES	LYPLA1 counter	PAFAH2 inh	LYPLA2 inh	ZTA counter	PAD4 inh	EBNA-1 inh	PAFAH1B3 inh	PREPL inh
Cc1cc(Br)c(NC(=O)CCl)c(Br)c1	4	2	5	-3	-1	-4	-4	-1
CCOC(=O)N1CCN(C(=O)CSCc2ccc(Br)cc2)CC1	1	2	3	25	-3	2	4	10

A portion of the library (hit frequency here may not be typical).
